# Screening results from PubChem.
# HIV Env fusion – inhibitors of HIV Env-mediated cell fusion | HeLa-JRFL Env/CEM21 cell fusion, luciferase | inhibition, % at 12.3 µM | actives 1.1% (n = 360,000) | AID 651610;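 active = mean replicate inhibition score of at least 50 and every replicate individually at or above 50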;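 note: 0% = plate neutral controls and 100% = maraviroc near 300 nM; one replicate is shown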
# Yeast UUG start – alters start codon recognition fidelity in yeast; activity score, % at 18.7 µM; AID 602363; S. cerevisiae UUG-firefly luciferase reporter, luminescence/redox ratio; actives 0.13% (n = 350,000);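 active = replicate mean at a twofold rise or more, about +100% in these data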;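 note: firefly luciferase made from a UUG start codon reports start codon fidelity; reporter light over untreated wells divided by growth signal over untreated wells; some hits fall short of that in this replicate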
# Starred values were filed as active, the others as inactive; [ ] = dose if it differs, or a comment. These rows are one share of the data; the hit share may differ from the screen's.
# Under each structure: HIV Env fusion, Yeast UUG start
CC(C)C[C@@H]1NC(=O)[C@@H]2C[C@H](C(=O)O)[C@H](c3cccc(OCCO)c3)N2C1=O
    7[16.7 µM], 9
O=C(C[C@@H]1CC[C@H](NS(=O)(=O)c2ccccc2)[C@@H](CO)O1)NCCN1CCCCC1
    -5[16.7 µM], -18
CNC[C@@H]1Oc2cc(C#Cc3cccnc3)ccc2S(=O)(=O)N([C@@H](C)CO)C[C@H]1C
    -21[16.7 µM], -5
C[C@H](CO)N1C[C@H](C)[C@@H](CN(C)C)Oc2c(NC(=O)Nc3ccccc3)cccc2C1=O
    -12[16.7 µM], -8
C[C@H]1CCCCO[C@@H](CN(C)Cc2ccc(C(F)(F)F)cc2)[C@@H](C)CN([C@@H](C)CO)C(=O)c2cc(NS(C)(=O)=O)ccc2O1
    55*[16.7 µM], 31
C[C@H]1CN([C@@H](C)CO)C(=O)c2cccc(NS(=O)(=O)c3ccc(Cl)cc3)c2O[C@H]1CN(C)Cc1ccc(C(=O)O)cc1
    21[16.7 µM], -6
C[C@@H]1CN([C@@H](C)CO)C(=O)c2cc(NS(=O)(=O)c3cccs3)ccc2O[C@H]1CN(C)CC1CC1
    -27[16.7 µM], 8
COc1ccc(NC(=O)N(C)C[C@@H]2OCCCC[C@H](C)Oc3ccc(NS(=O)(=O)c4c(C)noc4C)cc3C(=O)N([C@@H](C)CO)C[C@@H]2C)cc1
    -22[16.7 µM], 24
Cc1noc(C)c1S(=O)(=O)Nc1ccc2c(c1)C(=O)N([C@H](C)CO)C[C@@H](C)[C@@H](CN(C)Cc1ccc(C(F)(F)F)cc1)O2
    -9[16.7 µM], 9
C[C@@H]1CN([C@@H](C)CO)C(=O)c2cc(C#C[C@@H](C)O)cnc2O[C@H]1CN(C)C(=O)Nc1ccc(C(F)(F)F)cc1
    4[16.7 µM], 33
C[C@@H]1CN([C@H](C)CO)C(=O)c2cc(NC(=O)C3CCCCC3)ccc2O[C@@H](C)CCCCO[C@H]1CN(C)S(=O)(=O)c1ccc(Cl)cc1
    40[16.7 µM], 0
C[C@@H]1CN([C@H](C)CO)C(=O)Cc2cc(NS(=O)(=O)c3cn(C)cn3)ccc2O[C@@H]1CN(C)Cc1ccc(C(=O)O)cc1
    12[16.7 µM], -13
Cc1noc(C)c1NC(=O)N(C)C[C@H]1Oc2ccc(N(C)C)cc2C(=O)N([C@@H](C)CO)C[C@H]1C
    2[16.7 µM], -2
C[C@@H]1CN([C@H](C)CO)C(=O)c2cc(NS(=O)(=O)c3ccc(Cl)cc3)ccc2O[C@H]1CN(C)S(=O)(=O)c1ccc(Cl)cc1
    -31[16.7 µM], -7
CN(C)CC(=O)N[C@@H]1CC[C@@H](CCNC(=O)Nc2ccc(Cl)cc2)O[C@@H]1CO
    -2[16.7 µM], 3
CCNC(=O)C[C@@H]1CC[C@H]2[C@H](COc3ccc(NC(=O)c4ccccc4Cl)cc3C(=O)N2C)O1
    -11[16.7 µM], 4
C[C@@H]1CN([C@H](C)CO)C(=O)c2cc(NC(=O)Cc3ccccc3)ccc2O[C@@H]1CN(C)Cc1ccc(C(=O)Nc2ccccc2N)cc1
    8[16.7 µM], 5
C[C@H]1CN([C@@H](C)CO)C(=O)c2cc(C3=CCCCC3)cnc2O[C@H]1CN(C)C(=O)Nc1ccc(F)cc1
    -10[16.7 µM], 3
CC(C)NC(=O)N(C)C[C@@H]1Oc2cc(-c3ccccc3)ccc2S(=O)(=O)N([C@H](C)CO)C[C@@H]1C
    7[16.7 µM], -10
COCC(=O)N(C)C[C@H]1Oc2cc(-c3cccc(F)c3)ccc2S(=O)(=O)N([C@@H](C)CO)C[C@H]1C
    2[16.7 µM], 22
C[C@H](CO)N1C[C@H](C)[C@H](CN(C)C(=O)Cc2ccccc2)Oc2ncc(C#Cc3ccccc3F)cc2C1=O
    41[16.7 µM], -14
Cc1ccc(S(=O)(=O)N(C)C[C@H]2OCCCC[C@@H](C)Oc3ccc(NC(=O)C4CCCCC4)cc3C(=O)N([C@@H](C)CO)C[C@H]2C)cc1
    -9[16.7 µM], 5
C[C@H](CO)N1C[C@H](C)[C@H](CN(C)C(=O)Nc2ccccc2)OCCCC[C@H](C)Oc2ccc(NS(=O)(=O)c3ccccc3)cc2C1=O
    -84[16.7 µM], 31
C[C@@H]1CN([C@@H](C)CO)C(=O)Cc2cc(NS(=O)(=O)c3cn(C)cn3)ccc2O[C@@H]1CN(C)S(C)(=O)=O
    -26[16.7 µM], -22
C[C@H]1CN([C@@H](C)CO)S(=O)(=O)c2ccc(-c3cccnc3)cc2O[C@@H]1CN(C)C(=O)C1CCC1
    4[16.7 µM], -12
C[C@H](CO)N1C[C@H](C)[C@@H](CN(C)S(=O)(=O)c2cccs2)Oc2ccc(NC(=O)Cn3cnnn3)cc2CC1=O
    14[16.7 µM], 16
Cc1ccc(S(=O)(=O)N[C@H]2CC[C@@H](CCn3cc(C4CCCCC4)nn3)O[C@H]2CO)cc1
    13[16.7 µM], 2
Cc1ccc(S(=O)(=O)Nc2ccc3c(c2)C(=O)N([C@@H](C)CO)C[C@@H](C)[C@@H](CN(C)Cc2ccc4c(c2)OCO4)OCCCC[C@H](C)O3)cc1
    -163[16.7 µM], 24
Cc1noc(C)c1S(=O)(=O)N(C)C[C@@H]1Oc2ccc(NS(=O)(=O)c3ccc(Cl)cc3)cc2CC(=O)N([C@H](C)CO)C[C@@H]1C
    25[16.7 µM], 13
COc1ccc(S(=O)(=O)N(C)C[C@@H]2Oc3ccc(NC(=O)NC4CCCCC4)cc3CC(=O)N([C@H](C)CO)C[C@@H]2C)cc1
    31[16.7 µM], -17

# Entries shown so far that contain a thiophene ring, fused or not, in the order listed:
# Under each structure: HIV Env fusion, Yeast UUG start
C[C@@H]1CN([C@@H](C)CO)C(=O)c2cc(NS(=O)(=O)c3cccs3)ccc2O[C@H]1CN(C)CC1CC1
    -27[16.7 µM], 8
C[C@H](CO)N1C[C@H](C)[C@@H](CN(C)S(=O)(=O)c2cccs2)Oc2ccc(NC(=O)Cn3cnnn3)cc2CC1=O
    14[16.7 µM], 16

# Next section
# Under each structure: HIV Env fusion, Yeast UUG start
C[C@@H]1CN([C@@H](C)CO)C(=O)c2cc(-c3ccncc3)cnc2O[C@H]1CN(C)C(=O)c1ccc(F)cc1
    0[16.7 µM], -11
O=C(N[C@@H]1CC[C@@H](CCNS(=O)(=O)c2ccccc2)O[C@H]1CO)c1cnccn1
    11[16.7 µM], -12
C[C@H]1CN([C@@H](C)CO)C(=O)c2cc(NS(=O)(=O)c3ccc(F)cc3)ccc2O[C@@H]1CN(C)S(C)(=O)=O
    10[16.7 µM], -14
Cc1noc(C)c1NC(=O)Nc1ccc2c(c1)CC(=O)N([C@H](C)CO)C[C@H](C)[C@H](CN(C)S(=O)(=O)c1ccc(F)cc1)O2
    -17[16.7 µM], -1
C[C@H](CO)N1C[C@H](C)[C@H](CN(C)Cc2ccccc2C(=O)O)Oc2ncc(C3=CCCC3)cc2C1=O
    -34[16.7 µM], 10
COc1ccc(S(=O)(=O)N(C)C[C@H]2OCCCC[C@@H](C)Oc3ccc(NC(=O)Nc4ccccc4)cc3C(=O)N([C@@H](C)CO)C[C@@H]2C)cc1
    27[16.7 µM], -26
COc1ccccc1-c1cn(CC[C@@H]2CC[C@@H](NC(=O)c3ccccc3F)[C@H](CO)O2)nn1
    -32[16.7 µM], 0
C[C@H](CO)N1C[C@H](C)[C@H](CN(C)C(=O)Nc2ccc(C(F)(F)F)cc2)OCCCC[C@H](C)Oc2ccc(NC(=O)Nc3ccc4c(c3)OCO4)cc2C1=O
    19[16.7 µM], -5
C[C@H](CO)N1C[C@H](C)[C@H](CN(C)C(=O)Cc2cccnc2)Oc2cc(C#Cc3ccccc3F)ccc2S1(=O)=O
    26[16.7 µM], 18
C[C@@H]1CN([C@H](C)CO)C(=O)c2cc(NC(=O)Nc3ccc4c(c3)OCO4)ccc2O[C@@H](C)CCCCO[C@H]1CN(C)S(=O)(=O)c1cccs1
    5[16.7 µM], -18
CC(C)NC(=O)N[C@H]1C=C[C@@H](CC(=O)NCc2ccc(Oc3ccccc3)cc2)O[C@@H]1CO
    -89[16.7 µM], -4
CN1C(=O)c2cc(NC(=O)c3ccc(F)cc3)ccc2OC[C@@H]2O[C@H](CC(=O)NCC3CC3)CC[C@@H]21
    28[16.7 µM], -6
CC(C)NC(=O)N(C)C[C@H]1Oc2c(NC(=O)NC3CCCCC3)cccc2C(=O)N([C@H](C)CO)C[C@H]1C
    -4[16.7 µM], 6
C[C@H](CO)N1C[C@H](C)[C@H](CN(C)C(=O)Nc2ccc3c(c2)OCO3)Oc2ccc(NS(=O)(=O)c3ccc(F)cc3)cc2C1=O
    -6[16.7 µM], 9
COc1ccc(S(=O)(=O)Nc2cccc3c2O[C@@H](CN(C)S(=O)(=O)c2ccccc2)[C@H](C)CN([C@H](C)CO)C3=O)cc1
    -4[16.7 µM], -9
COc1cccc(NC(=O)C[C@H]2CC[C@H]3[C@H](COc4ccc(NC(=O)C5CC5)cc4C(=O)N3C)O2)c1
    -13[16.7 µM], 2
CCC(=O)N(C)C[C@@H]1Oc2cc(-c3ccccc3F)ccc2S(=O)(=O)N([C@@H](C)CO)C[C@@H]1C
    5[16.7 µM], 17
C[C@H](CO)N1C[C@H](C)[C@H](CN(C)S(=O)(=O)c2ccc(Cl)cc2)OCCCC[C@H](C)Oc2ccc(NC(=O)NC3CCCCC3)cc2C1=O
    -14[16.7 µM], -4
O=C(C[C@@H]1CC[C@H](NS(=O)(=O)c2ccccc2)[C@H](CO)O1)NCc1ccccc1F
    8[16.7 µM], 5
C[C@H]1CN([C@@H](C)CO)C(=O)Cc2cc(NC(=O)CCC(F)(F)F)ccc2O[C@@H]1CN(C)S(=O)(=O)c1cccs1
    0[16.7 µM], -4
CC(C)CC#Cc1ccc2c(c1)O[C@@H](CN(C)Cc1cccnc1)[C@H](C)CN([C@@H](C)CO)S2(=O)=O
    28[16.7 µM], -11
C[C@@H]1CCCCO[C@@H](CN(C)Cc2ccc(C(F)(F)F)cc2)[C@@H](C)CN([C@@H](C)CO)C(=O)c2cc(NC(=O)Nc3ccc(C(F)(F)F)cc3)ccc2O1
    27[16.7 µM], 1
O=C(C[C@H]1C[C@@H]2c3cc(NC(=O)NC4CCCC4)ccc3O[C@@H]2[C@@H](CO)O1)NC1CCCCC1
    -12[16.7 µM], 9
C[C@@H]1CN([C@@H](C)CO)C(=O)c2cc(NC(=O)C3CC3)ccc2O[C@@H]1CN(C)S(=O)(=O)c1cccs1
    28[16.7 µM], 10
C[C@H]1CN([C@@H](C)CO)C(=O)Cc2cc(NC(=O)C3CCCCC3)ccc2O[C@@H]1CN(C)Cc1ccc(Oc2ccccc2)cc1
    -21[16.7 µM], -4
COc1ccc(C#Cc2cnc3c(c2)C(=O)N([C@H](C)CO)C[C@H](C)[C@H](CN(C)C(=O)Nc2ccc4c(c2)OCO4)O3)cc1OC
    -5[16.7 µM], 13
CC(C)NC(=O)N(C)C[C@@H]1Oc2cc(-c3cccnc3)ccc2S(=O)(=O)N([C@H](C)CO)C[C@H]1C
    16[16.7 µM], -10
O=C(C[C@@H]1C[C@H]2c3cc(NC(=O)C4CCOCC4)ccc3O[C@H]2[C@@H](CO)O1)NCc1ccccn1
    -20[16.7 µM], -24
Cc1ccc(S(=O)(=O)N[C@@H]2CC[C@@H](CC(=O)NC3CCCCC3)O[C@@H]2CO)cc1
    -1[16.7 µM], 12
C[C@@H]1CN([C@@H](C)CO)C(=O)Cc2cc(NC(=O)CCCCCC(=O)Nc3ccccc3N)ccc2O[C@@H]1CN(C)C(=O)NC1CCCCC1
    3[16.7 µM], -5

# Among those listed so far, four have a COOH group:
# Under each structure: HIV Env fusion, Yeast UUG start
CC(C)C[C@@H]1NC(=O)[C@@H]2C[C@H](C(=O)O)[C@H](c3cccc(OCCO)c3)N2C1=O
    7[16.7 µM], 9
C[C@H]1CN([C@@H](C)CO)C(=O)c2cccc(NS(=O)(=O)c3ccc(Cl)cc3)c2O[C@H]1CN(C)Cc1ccc(C(=O)O)cc1
    21[16.7 µM], -6
C[C@@H]1CN([C@H](C)CO)C(=O)Cc2cc(NS(=O)(=O)c3cn(C)cn3)ccc2O[C@@H]1CN(C)Cc1ccc(C(=O)O)cc1
    12[16.7 µM], -13
C[C@H](CO)N1C[C@H](C)[C@H](CN(C)Cc2ccccc2C(=O)O)Oc2ncc(C3=CCCC3)cc2C1=O
    -34[16.7 µM], 10

# (cont.)
smiles: C[C@H]1CN([C@@H](C)CO)C(=O)c2cc(-c3cccnc3)cnc2O[C@H]1CN(C)Cc1ccc(-c2ccccc2)cc1
- HIV Env fusion: -10[16.7 µM]
- Yeast UUG start: 1
smiles: Cc1ccccc1S(=O)(=O)N1[C@@H](C#N)[C@@H](c2ccc(-c3ccc(F)cc3)cc2)[C@@H]1CO
- HIV Env fusion: -21[16.7 µM]
- Yeast UUG start: -5
smiles: N#C[C@@H]1[C@@H](c2ccc(-c3cccc(F)c3)cc2)[C@H](CO)N1C(=O)NC1CCCC1
- HIV Env fusion: 3[16.7 µM]
- Yeast UUG start: -1
smiles: O=C(N[C@H]1CC[C@H](CCNS(=O)(=O)c2ccc(F)cc2)O[C@H]1CO)c1cccnc1
- HIV Env fusion: -16[16.7 µM]
- Yeast UUG start: -1
smiles: C[C@H]1CN([C@@H](C)CO)S(=O)(=O)c2ccc(C#CCN(C)C)cc2O[C@H]1CN(C)C(=O)CC1CC1
- HIV Env fusion: -9[16.7 µM]
- Yeast UUG start: -4
smiles: CCCNC(=O)N(C)C[C@@H]1Oc2ncc(C#C[C@H](C)O)cc2C(=O)N([C@@H](C)CO)C[C@@H]1C
- HIV Env fusion: -7[16.7 µM]
- Yeast UUG start: 8
smiles: COc1ccc(-c2cnc3c(c2)C(=O)N([C@@H](C)CO)C[C@H](C)[C@@H](CN(C)Cc2ccccc2)O3)cc1
- HIV Env fusion: -2[16.7 µM]
- Yeast UUG start: 17
smiles: Cc1ccc(S(=O)(=O)Nc2ccc3c(c2)C(=O)N([C@@H](C)CO)C[C@H](C)[C@@H](CN(C)S(=O)(=O)c2ccccc2)OCCCC[C@@H](C)O3)cc1
- HIV Env fusion: -24[16.7 µM]
- Yeast UUG start: -13
